Ecoli rRNA inh: inhibits bacterial ribosomal RNA function over humanized ribosomes; 350,000 compounds, 1.6% hits; AID 720706; GFP signal change (wild-type ribosome), % (no concentration beside the values); E. coli WT GFP vs humanized-ribosome RFP mutants, fluorescence, 24 h; stronger effect = lower value; DMSO median 0, no signal -100;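 active = significant combined selectivity score with lowered wild-type GFP, culture density cut under 30%, mutant RFP and density less affected; inactive = any of these conditions unmet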; note: one replicate is shown; some compounds called inactive have numbers as strong as hits
Ecoli rRNA inh OD600: second read-out of Ecoli rRNA inh, no call of its own (marks repeat the call); OD600 change, %; measured here: OD600 growth;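 optical density of the mix in the first replicate; 0 = DMSO median and -100 = no signal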
Ecoli rRNA inh RFP: further read-out of Ecoli rRNA inh, marked with its call; RFP signal change, %; measured here: RFP humanized mutant strains;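 first replicate; 0 = DMSO median and -100 = no signal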
* hit, by the source's call; & = joins results of further samples. Some of the compounds tested; the hit share may differ from the screen's.

1) CO[C@@H]1CN(C)C(=O)c2ccc(NC(=O)Nc3ccccc3Cl)cc2OC[C@H](C)NC[C@H]1C
2) COc1ccc(CNC(=O)N(C)C[C@H]2OCc3ccccc3-c3c(n(C)c4ccccc34)C(=O)N([C@H](C)CO)C[C@@H]2C)cc1
3) O=C(C[C@@H]1C=C[C@H](NC(=O)C2CCC2)[C@@H](CO)O1)NC1CCCCC1
4) COCC(=O)N1CC2(CCN(C(=O)CN3CCOCC3)CC2)c2c([nH]c3cc(OC)ccc23)[C@@H]1CO
5) C[C@@H]1CN([C@H](C)CO)C(=O)c2cc(NS(=O)(=O)c3cn(C)cn3)ccc2O[C@@H]1CN(C)Cc1ccc(C(=O)O)cc1
6) CO[C@H]1CN(C)C(=O)c2cc(NC(=O)C3CCOCC3)ccc2OC[C@H](C)N(Cc2nccs2)C[C@H]1C
7) COc1cccc(CNC(=O)C[C@H]2C=C[C@H](NC(=O)C3CCOCC3)[C@H](CO)O2)c1
8) CCCC#Cc1ccc2c(c1)O[C@H](CN(C)C(=O)C1CC1)[C@@H](C)CN([C@@H](C)CO)S2(=O)=O

entry no. | 1 | 2 | 3 | 4 | 5 | 6 | 7 | 8
Ecoli rRNA inh | -1 | 0 | 3 | 4 | 3 | 1&3 | 3 | -1
Ecoli rRNA inh OD600 | 5 | 2 | 7 | 8 | 6 | -1&14 | 0 | -11
Ecoli rRNA inh RFP | 2.5 | 0.1 | 2.5 | -6.1 | 3.2 | -4.4&1.3 | 6.3 | 1.3

9) CO[C@@H]1CN(C)C(=O)c2cc(NC(=O)c3ccccc3F)ccc2OC[C@H](C)N(CC2CC2)C[C@H]1C
10) C[C@@H]1CCCCO[C@H](CN(C)S(C)(=O)=O)[C@H](C)CN([C@@H](C)CO)C(=O)c2cc(NS(=O)(=O)c3cccs3)ccc2O1
11) CCC(=O)Nc1ccc2c(c1)C(=O)N(C)[C@H]1CC[C@H](CC(=O)Nc3cccc(OC)c3)O[C@H]1CO2
12) CCOC(=O)Cn1c2c(n(-c3ccc(F)cc3)c1=O)C=C(c1ccccc1)[C@@H](C)C(C(=O)N(C)C1CCCCC1)=C2
13) CC(=O)N1CC2(CC(c3ccc(Cl)cc3Cl)=NO2)CN1c1cccc(Cl)c1 (stereo unspecified)
14) C[C@@H]1CCCCO[C@@H](CN(C)C(=O)Nc2ccc3c(c2)OCO3)[C@@H](C)CN([C@H](C)CO)C(=O)c2cc(NC(=O)CCC(F)(F)F)ccc2O1
15) COc1cccc(NC(=O)N[C@@H]2CC[C@@H](CC(=O)NCc3ccccn3)O[C@@H]2CO)c1
16) C[C@@H]1CN([C@@H](C)CO)S(=O)(=O)c2ccc(C#Cc3ccncc3)cc2O[C@@H]1CN(C)C(=O)C1CC1

entry no. | 9 | 10 | 11 | 12 | 13 | 14 | 15 | 16
Ecoli rRNA inh | 4 | -2 | 0 | 15 | -12 | 3 | 0 | -1
Ecoli rRNA inh OD600 | 2 | -1 | -1 | -1 | -24 | 6 | 1 | -8
Ecoli rRNA inh RFP | -1.9 | -0.2 | 1.3 | 3.8 | -3.5 | -3.9 | -0.2 | -0.9

17) CC=Cc1ccc2n(c1=O)C[C@H]1[C@H](CO)[C@@H](C(=O)NCCC)N(C(=O)C3CCOCC3)[C@@H]21 (mixture of isomers)
18) CN1c2ccc(-c3cccc(F)c3)cc2[C@H]2[C@H](CCN2C(=O)C2CCCC2)[C@H]1CO
19) CO[C@H]1CN(C)C(=O)c2ccc(NC(=O)c3ccccc3F)cc2OC[C@H](C)NC[C@@H]1C
20) CC(C)CC#Cc1ccc2c(c1)O[C@H](CN(C)C(=O)Cc1ccncc1)[C@H](C)CN([C@@H](C)CO)S2(=O)=O
21) CCCNC(=O)C[C@@H]1CC[C@H]2[C@@H](COc3ccc(NC(=O)C4CCCC4)cc3C(=O)N2C)O1
22) COc1ccc(CC(=O)N(CCC2=CCCCC2)c2c(N)n(Cc3ccccc3)c(=O)[nH]c2=O)cc1
23) CCC(=O)N1CCCCN2[C@H](CO)[C@H](c3ccc(C#Cc4ccccc4F)cc3)[C@@H]2C1
24) O=C(Nc1ccc2c(c1)OCO2)N[C@H]1CC[C@@H](CC(=O)N2CCN(c3ccccc3)CC2)O[C@@H]1CO

entry no. | 17 | 18 | 19 | 20 | 21 | 22 | 23 | 24
Ecoli rRNA inh | 3 | -10 | 0 | -3 | 3 | -4 | -57 | -4
Ecoli rRNA inh OD600 | 2 | -33 | -7 | 2 | 4 | -8 | -73 | 1
Ecoli rRNA inh RFP | 0.9 | 21 | 1.4 | 2.7 | 0.1 | -4.0 | -8.5 | -1.9

25) C[C@H]1CN([C@@H](C)CO)C(=O)Cc2cc(NS(=O)(=O)c3ccccc3)ccc2O[C@H]1CN(C)Cc1ccccc1
26) CC(C)NC(=O)N1[C@H](C#N)[C@H](c2ccc(-c3ccc(F)cc3)cc2)[C@H]1CO
27) CCCNC(=O)[C@@H]1[C@@H](CO)[C@@H]2Cn3c(cccc3=O)[C@H]1N2C(=O)C1CC1
28) C/C=C/c1cnc2c(c1)C(=O)N([C@@H](C)CO)C[C@@H](C)[C@H](CN(C)C(=O)c1ccc3c(c1)OCO3)O2
29) O=C(C1CCCCC1)N1C[C@H]2[C@@H](c3ccccc31)[C@H](CO)N2CC1CCOCC1
30) COCC(=O)Nc1ccc2c(c1)OC[C@H](C)N(Cc1ccncc1)C[C@@H](C)[C@@H](OC)CN(C)C2=O
31) CNC[C@H]1Oc2ccc(NS(=O)(=O)c3ccc(OC)cc3)cc2C(=O)N([C@H](C)CO)C[C@H]1C
32) CCCN(C)C[C@@H]1OCCCC[C@@H](C)Oc2ccc(NC(=O)NC(C)C)cc2C(=O)N([C@H](C)CO)C[C@@H]1C

entry no. | 25 | 26 | 27 | 28 | 29 | 30 | 31 | 32
Ecoli rRNA inh | 0 | -9 | 1 | 2 | 0 | -3 | 4 | 0
Ecoli rRNA inh OD600 | -13 | -31 | 2 | 3 | 7 | -12 | 1 | 6
Ecoli rRNA inh RFP | 4.1 | -5.5 | 0.0 | -1.8 | -6.0 | -0.8 | 0.3 | -5.1

33) CC(C)NC(=O)N(C)C[C@@H]1Oc2ncc(C#CCc3ccccc3)cc2C(=O)N([C@H](C)CO)C[C@H]1C
34) C[C@@H]1CN([C@H](C)CO)C(=O)c2cccc(NC(=O)C3CCOCC3)c2O[C@H]1CN(C)Cc1ccc(Oc2ccccc2)cc1
35) C/C=C/c1ccccc1[C@H]1[C@@H](CO)N(C(=O)NC2CCCCC2)[C@H]1C#N
36) O=C(Nc1ccccc1)N1CCCCN2[C@@H](CO)[C@H](c3ccc(-c4ccccc4F)cc3)[C@@H]2C1
37) O=C(NCc1ccc(F)cc1F)[C@@H]1CCCN1C(=O)[C@@H]1CCCN1C(=O)c1cccs1
38) C[C@@H]1CN([C@@H](C)CO)C(=O)Cc2cc(NC(=O)Cc3ccccc3)ccc2O[C@@H]1CN(C)Cc1ccccc1
39) COc1ccc(NC(=O)N(C)C[C@H]2Oc3ccc(NS(=O)(=O)c4ccccc4)cc3C(=O)N([C@@H](C)CO)C[C@H]2C)cc1
40) C[C@@H]1CN([C@@H](C)CO)C(=O)c2cc(NC(=O)Cc3cn(C)c4ccccc34)ccc2O[C@@H]1CN(C)CC1CC1

entry no. | 33 | 34 | 35 | 36 | 37 | 38 | 39 | 40
Ecoli rRNA inh | 0 | -3 | -6 | -59 | 2 | 1 | 3 | 4
Ecoli rRNA inh OD600 | -4 | -15 | -9 | -72 | 18 | -1 | 10 | 7
Ecoli rRNA inh RFP | -3.6 | -0.5 | -0.6 | -16 | 0.4 | -0.1 | -2.3 | 0.8

A section from further up:
27) CCCNC(=O)[C@@H]1[C@@H](CO)[C@@H]2Cn3c(cccc3=O)[C@H]1N2C(=O)C1CC1
28) C/C=C/c1cnc2c(c1)C(=O)N([C@@H](C)CO)C[C@@H](C)[C@H](CN(C)C(=O)c1ccc3c(c1)OCO3)O2
29) O=C(C1CCCCC1)N1C[C@H]2[C@@H](c3ccccc31)[C@H](CO)N2CC1CCOCC1
30) COCC(=O)Nc1ccc2c(c1)OC[C@H](C)N(Cc1ccncc1)C[C@@H](C)[C@@H](OC)CN(C)C2=O
31) CNC[C@H]1Oc2ccc(NS(=O)(=O)c3ccc(OC)cc3)cc2C(=O)N([C@H](C)CO)C[C@H]1C
32) CCCN(C)C[C@@H]1OCCCC[C@@H](C)Oc2ccc(NC(=O)NC(C)C)cc2C(=O)N([C@H](C)CO)C[C@@H]1C
33) CC(C)NC(=O)N(C)C[C@@H]1Oc2ncc(C#CCc3ccccc3)cc2C(=O)N([C@H](C)CO)C[C@H]1C
34) C[C@@H]1CN([C@H](C)CO)C(=O)c2cccc(NC(=O)C3CCOCC3)c2O[C@H]1CN(C)Cc1ccc(Oc2ccccc2)cc1
35) C/C=C/c1ccccc1[C@H]1[C@@H](CO)N(C(=O)NC2CCCCC2)[C@H]1C#N
36) O=C(Nc1ccccc1)N1CCCCN2[C@@H](CO)[C@H](c3ccc(-c4ccccc4F)cc3)[C@@H]2C1

entry no. | 27 | 28 | 29 | 30 | 31 | 32 | 33 | 34 | 35 | 36
Ecoli rRNA inh | 1 | 2 | 0 | -3 | 4 | 0 | 0 | -3 | -6 | -59
Ecoli rRNA inh OD600 | 2 | 3 | 7 | -12 | 1 | 6 | -4 | -15 | -9 | -72
Ecoli rRNA inh RFP | 0.0 | -1.8 | -6.0 | -0.8 | 0.3 | -5.1 | -3.6 | -0.5 | -0.6 | -16

37) O=C(NCc1ccc(F)cc1F)[C@@H]1CCCN1C(=O)[C@@H]1CCCN1C(=O)c1cccs1

entry no. | 37
Ecoli rRNA inh | 2
Ecoli rRNA inh OD600 | 18
Ecoli rRNA inh RFP | 0.4

(next part)
41) O=C(N[C@@H]1CC[C@@H](CCn2cc(-c3ccccn3)nn2)O[C@@H]1CO)c1ccc(F)cc1
42) C[C@H](CO)N1C[C@H](C)[C@H](CN(C)C(=O)Nc2cccc3ccccc23)Oc2ccc(NS(=O)(=O)c3ccc(F)cc3)cc2CC1=O
43) O=C(C[C@@H]1C=C[C@H](NC(=O)c2cccc(F)c2)[C@@H](CO)O1)Nc1nccs1
44) C[C@@H]1CN([C@H](C)CO)C(=O)Cc2cc(NS(=O)(=O)c3ccc(F)cc3)ccc2O[C@@H]1CN(C)C(=O)NC1CCCCC1
45) CCCc1cn(CC[C@@H]2CC[C@@H](NC(=O)CCN3CCCCC3)[C@@H](CO)O2)nn1
46) C[C@@H]1CN([C@@H](C)CO)C(=O)c2cccc(NC(=O)Nc3ccc4c(c3)OCO4)c2O[C@@H]1CN(C)S(=O)(=O)c1ccccc1
47) C[C@H](CO)N1C[C@H](C)[C@H](CN(C)S(=O)(=O)c2ccc(Cl)cc2)Oc2c(NC(=O)Nc3cccc4ccccc34)cccc2C1=O
48) C[C@@H]1CN([C@H](C)CO)C(=O)c2cc(/C=C/c3ccccc3)cnc2O[C@@H]1CN(C)C(=O)Cc1ccccn1

entry no. | 41 | 42 | 43 | 44 | 45 | 46 | 47 | 48
Ecoli rRNA inh | -2 | -3 | -1 | -5 | 1 | -1 | 2 | 3
Ecoli rRNA inh OD600 | 1 | -12 | -1 | -2 | 1 | -3 | 13 | 6
Ecoli rRNA inh RFP | -1.9 | 3.7 | -1.0 | -4.0 | 0.9 | -2.0 | -2.3 | -1.7

49) COc1ccc(S(=O)(=O)N(C)C[C@@H]2Oc3ccc(NC(=O)CCCN(C)C)cc3CC(=O)N([C@@H](C)CO)C[C@H]2C)cc1
50) CN1[C@H](C(=O)NCC(F)(F)F)[C@@H](CO)[C@@H]2Cn3c(ccc(-c4ccc(F)cc4)c3=O)[C@@H]21
51) CN1CCN(C(=O)C[C@@H]2C=C[C@H](NC(=O)Cc3ccccn3)[C@@H](CO)O2)CC1
52) O=C(Cc1ccccn1)NCC[C@@H]1CC[C@@H](NS(=O)(=O)c2ccc(Cl)cc2)[C@@H](CO)O1
53) C[C@H](CO)N1C[C@H](C)[C@@H](CN(C)S(=O)(=O)c2cccc(C#N)c2)OCc2ccccc2-c2c(n(C)c3ccccc23)C1=O
54) COc1ccc(C(C(=O)NCc2ccccc2)n2c(=O)c(-c3ccco3)nc3ccccc32)cc1 (stereo unspecified)
55) O=C(C[C@H]1C[C@H]2c3cc(NC(=O)NC4CCCC4)ccc3O[C@H]2[C@@H](CO)O1)NCc1ccc2c(c1)OCO2
56) C[C@H](CO)N1C[C@H](C)[C@@H](CN(C)S(=O)(=O)c2ccc(F)cc2)Oc2ccc(NC(=O)c3ccncc3)cc2CC1=O

entry no. | 49 | 50 | 51 | 52 | 53 | 54 | 55 | 56
Ecoli rRNA inh | -2 | -3 | 1 | 4 | 2 | 5 | 3 | -3
Ecoli rRNA inh OD600 | -4 | -5 | -8 | 2 | 9 | 3 | 7 | 6
Ecoli rRNA inh RFP | 2.2 | -0.3 | -0.7 | 1.3 | -3.7 | 0.1 | -1.4 | -1.0

57) C[C@@H]1CN([C@@H](C)CO)C(=O)c2cccc(NS(C)(=O)=O)c2O[C@@H]1CN(C)C(=O)NC1CCCCC1
58) C[C@@H]1CN([C@@H](C)CO)C(=O)Cc2cc(NC(=O)Nc3cccc4ccccc34)ccc2O[C@H]1CN(C)Cc1ccc2c(c1)OCO2
59) COc1cccc(S(=O)(=O)N(C)C[C@@H]2Oc3cc(C4=CCCCC4)ccc3S(=O)(=O)N([C@@H](C)CO)C[C@H]2C)c1
60) CC(C)N1CCC1(C)C(=O)Nc1cccc2ccccc12 (stereo unspecified)

entry no. | 57 | 58 | 59 | 60
Ecoli rRNA inh | 0 | 5 | 2 | 14
Ecoli rRNA inh OD600 | -1 | -8 | 0 | 2
Ecoli rRNA inh RFP | -0.2 | 8.3 | 2.0 | -3.4
